Ecoli growth: E. coli growth inhibition, primary screen, OD600; Escherichia coli growth, 23 h; stronger effect = lower value; OD600 absorbance (test concentration not listed); 330,000 compounds, 0.21% hits;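 active means OD600 absorbance below the run mean of sample wells minus 3.6 SD, in any replicate, cut at about 0.56 in these data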;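 further: stock transfer was 300 nL into about 60 µL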
Vif A3G: inhibitors of Vif binding to APOBEC3G peptide, primary screen, biochemical, TR-FRET, GST-Vif 1-94, biotin-A3G peptide, dose response retest (AID 1117319); one-dose inhibition, %; IC50 in µM for titrated hits; Virion infectivity factor (Human immunodeficiency virus type 1 group M subtype B (isolate …; 260,000 compounds, 0.57% hits; TR-FRET GST-Vif / biotin-A3G peptide binding; higher % means a stronger effect; test concentration not given here; strong numbers were not always called active;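 active means above the screen mean plus three standard deviations and confirmed in dose response; inconclusive means results disagree or hit not tested in dose response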;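 further: Vif residues 1-94 fused to GST binding biotinylated APOBEC3G peptide 110-148; 0% = full assay without inhibitor and 100% = GST in place of GST-Vif; retest series ran down from 100 µM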
B2AR ag: beta2AR agonists driving receptor internalization, primary screen, cell-based, FAP fluorogen, flow cytometry. response, % (concentration not given with the values). Am2.2-beta2AR cells; reference of the scale not given here. 340,000 compounds, 0.43% hits;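 active means response above a set limit, near 3 SD of response in nonfluorescent compounds, cut at about 42% in these data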;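 further: stock transfer was 100 nL into about 11 µL; a reference agonist was the positive control; negative values mostly stem from fluorescent compounds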
Target sequence (P07550 whole entry, looked up): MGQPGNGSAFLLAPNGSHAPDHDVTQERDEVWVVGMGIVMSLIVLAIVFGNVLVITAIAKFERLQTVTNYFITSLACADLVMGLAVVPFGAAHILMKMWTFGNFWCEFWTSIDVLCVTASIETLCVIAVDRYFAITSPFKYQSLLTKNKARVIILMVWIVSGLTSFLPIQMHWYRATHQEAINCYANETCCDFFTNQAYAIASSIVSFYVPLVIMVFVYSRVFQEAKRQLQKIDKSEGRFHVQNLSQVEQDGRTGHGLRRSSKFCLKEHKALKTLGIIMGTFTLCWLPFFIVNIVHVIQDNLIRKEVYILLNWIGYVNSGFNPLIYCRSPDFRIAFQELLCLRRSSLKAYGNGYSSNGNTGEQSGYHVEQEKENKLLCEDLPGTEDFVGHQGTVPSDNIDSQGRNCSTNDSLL
LANA-H2B inh: blockers of LANA interaction with H2A/H2B – biochemical, FP readout, HTS, primary screen | Protein LANA1 (Human herpesvirus 8 type P (isolate GK18)), Q9QR71 | inhibition, % (concentration not given with the values) | cell-free LANA-H2A/H2B peptide, fluorescence polarization | 320,000 compounds, 0.6% hits; in the data active means inhibition mostly above about 10%, no sharp cut-off; inactive means mostly below about 6.7%;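 further: stock transfer was 7.5 nL into about 10 µL; 0% = median of vehicle wells and 100% = median of positive control wells; one replicate is shown; the record names a cut of 25% in any replicate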
HNF4A DNA FP: change in binding of human HNF4A to DNA, primary screen, biochemical, fluorescence polarization, FITC-DNA. 1 h. activity change, % at 10 µM. 360,000 compounds, 0.3% hits. AID 1224865, 2016; in the data active means activity change above about 30%, passing the limit was not always enough;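 further: controls were the assay level and a saturating level of protein; the project sought stronger binding though the title names inhibitors; some compounds called inactive have numbers as strong as hits; positive values seem to mean higher polarization but the record does not say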
UCH37 inh: inhibitors of human UCH37 deubiquitinase, primary screen, biochemical, Ub-AMC cleavage, fluorescence | Ubiquitin carboxyl-terminal hydrolase isozyme L5 (Homo sapiens), Q9Y5K5 | AID 588478, 2011 | purified proteasome/UCH37 | inhibition, % (concentration not given with the values) | 330,000 compounds, 0.33% hits;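 active means mean of two replicates above 20%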;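 further: 0% = compound-free wells with enzyme and 100% = wells lacking proteasome; stock transfer was 100 nL into about 20 µL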
Target sequence (Q9Y5K5 whole entry, looked up): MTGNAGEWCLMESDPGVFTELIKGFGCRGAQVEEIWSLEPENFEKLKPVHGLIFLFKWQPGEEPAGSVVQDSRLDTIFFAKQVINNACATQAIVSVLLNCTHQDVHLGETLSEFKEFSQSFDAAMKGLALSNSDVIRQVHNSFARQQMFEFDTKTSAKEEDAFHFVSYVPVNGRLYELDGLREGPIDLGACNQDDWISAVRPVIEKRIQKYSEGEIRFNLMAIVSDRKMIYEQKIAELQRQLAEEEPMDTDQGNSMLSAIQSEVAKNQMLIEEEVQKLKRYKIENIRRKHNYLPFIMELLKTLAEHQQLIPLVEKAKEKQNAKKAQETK
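Assay system: Proteasome-bound UCH37. Buffer or medium: pH 7.4 Tris-HCl (50 mM) with ovalbumin, ATP-MgCl2, DTT. Incubation: 30 min preincubation with enzyme, 25 min cleavage at room temperature. Measured by: fluorescence, ex 355 nm, em 460 nm. Read-out basis: percent inhibition. Control set: wells without proteasome as full block, compound-free enzyme plus substrate as uninhibited.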
Bfl-1 A1 inh: caspase 3/7 activation in MEF A1-2A-BIM cells, primary screen, A1 inhibitor project, cell-based, luminescence, HTS; Caspase-Glo 3/7 luminescence, 3 h; percent of clofoctol response, vehicle zero; caspase activation, % (test concentration not listed); 330,000 compounds, 0.066% hits;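 active means over half of replicate activation scores above 10%, or exactly half above 10 with the replicate mean above 10; inconclusive means replicate mean below 10 yet half the replicates above 10; inactive means over half of replicates below 10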;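 further: wells of about 30 µL received 50 nL stock; many hits fall short of the cut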
Active calls of the source: *; i = inactive; u = inconclusive; x = no result given; & = joins results of further samples.

SMILES | Ecoli growth | Vif A3G | B2AR ag | LANA-H2B inh | HNF4A DNA FP | UCH37 inh | Bfl-1 A1 inh
c1cn2c(NC3CCCCC3)c(-c3ccc(SC4CCCCC4)cc3)nc2cn1 | 0.67 | x | 0 | 4.1 | 5.5&20 | i | 0.9
CC1CCN(C(=O)CSCc2ccc(Cl)cc2)CC1 | 0.74 | 1% | -12 | 1.4 | -0.4 | 1.3 | 0.0
Cn1c(Cn2nnc3ccccc32)nnc1SCC(=O)N1CCc2ccccc21 | 0.73 | -4% | 0 | 0.9 | -3.4 | 3.7 | 0.2
CNC(=S)N(C)[C@H]1c2c(ccc3ccccc23)OC[C@H]1CO | 0.64 | -2% | 6 | 0.1 | 3.9 | 2.7 | 0.2
COC(=O)/C=C1/N/C(=N\c2nc(C)cc(C)n2)N(c2cccc(C)c2)C1=O | x | 14% | 6 | -2.3 | 1.1 | x | 2.3
Cc1ccc(NS(=O)(=O)c2ccc(OCC(=O)NCC3CCCO3)cc2)cc1 (stereo unspecified) | 0.71 | -5% | 5 | 14 | -1.4 | 0.5 | 0.7
C=CCn1c(Sc2nc(C)cs2)nc2c1c(=O)[nH]c(=O)n2C | 0.68 | 94µM* | -2 | -4.3 | -3.1 | 3.5 | -0.1
COc1ccc2c(c1)c(=O)oc1c(C)c(OC(C)C(=O)NCC3CCC(C(=O)O)CC3)ccc12 (stereo unspecified) | 0.76 | x | 1 | -1.9 | 2.2 | -461 | 0.2
CS(=O)(=O)c1nc(-c2ccc(Br)cc2)cc(-c2ccccc2)c1C#N | 0.72 | -50% | 30 | -4.2 | -0.6 | -4.7 | -1.2
CC(/C=C/c1ccc2c(c1)OCO2)=N/NC(=O)C1COc2ccccc2O1 (stereo unspecified) | x | 28% | x | 1.8 | x | x | -1.1
CC(C)OCCCNc1ccc(N2C(=O)CCCC2=O)cc1[N+](=O)[O-] | 0.62 | -9% | 3 | 0.7 | -0.6 | 4.6 | 0.2
COC(=O)/C=c1/s/c(=C(/C#N)C(=O)N2CCOCC2)n(-c2ccccc2)c1=O | x | 10% | -11 | 0.9 | 2.0 | x | -1.0
Nc1ccc2nc(SCC(=O)Nc3ccc(N4CCOCC4)c(Cl)c3)sc2c1 | 0.61 | -7% | -7 | -2.7 | 0.9 | 2.9 | -0.8
CC1Cc2ccccc2N1Cc1cccc([N+](=O)[O-])c1 (stereo unspecified) | 0.66 | x | 2 | 2.7 | -1.4 | 4.7 | 0.9
CN(C)c1nc(Oc2ccc(=O)[nH]n2)nc(N2CCOCC2)n1 | 0.72 | -9% | -8 | -1.6 | -2.5 | 3.8 | 0.2
Cc1cc(C(=O)CSc2nnc(-c3ccncc3)n2-c2ccccc2)c(C)n1C | 0.68 | u | 14 | -1.8 | -2.6 | 4.3 | 0.0
Cc1ccc(-c2nc3ccccc3c(=O)n2CCCn2ccnc2)cc1 | 0.71 | 1% | -11 | 2.7 | -0.5 | 2.8 | -0.6
C=CCn1c(COc2ccccc2)nnc1SCC(=O)Nc1ccc(S(N)(=O)=O)cc1 | 0.7 | 8%&6% | 5 | -1.4 | 1.9 | 1.7 | 0.9
C=CCNC(=O)c1ccc2c(=O)n(CCCN3CCCC3=O)c(=S)[nH]c2c1 | 0.71 | 9% | -6 | -1.2 | 4.6 | 3.4 | 1.2
CCOC(=O)N1CCC(NC(=O)CS(=O)Cc2nc(-c3ccc(C)cc3)oc2C)CC1 (stereo unspecified) | 0.7 | 2% | 6 | -8.9 | -2.0 | 4.5 | 0.0

Overlap with the part before: two compounds, then new ones.
SMILES | Ecoli growth | Vif A3G | B2AR ag | LANA-H2B inh | HNF4A DNA FP | UCH37 inh | Bfl-1 A1 inh
C=CCNC(=O)c1ccc2c(=O)n(CCCN3CCCC3=O)c(=S)[nH]c2c1 | 0.71 | 9% | -6 | -1.2 | 4.6 | 3.4 | 1.2
CCOC(=O)N1CCC(NC(=O)CS(=O)Cc2nc(-c3ccc(C)cc3)oc2C)CC1 (stereo unspecified) | 0.7 | 2% | 6 | -8.9 | -2.0 | 4.5 | 0.0
CCOc1ccccc1NC(=O)Cn1c(=O)c(OCC)nc2cnccc21 | 0.71 | -3% | 0 | -4.1 | -0.5 | 5.9 | 0.6
O=[N+]([O-])c1ccc(OCC(O)CN(C2CCCCC2)C2CCCCC2)cc1 (stereo unspecified) | 0.7 | u | 7 | 1.9 | -2.9 | 4.2 | 0.7
FC(F)(F)c1cc(-c2ccco2)nc(NCCc2ccccc2)n1 | 0.72 | 8% | -8 | -3.5 | 1.9 | -20 | -0.6
Cc1ccc(CCNC(=O)C2CCN(S(=O)(=O)N3CCCC3)CC2)cc1 | 0.7 | 6% | -1 | -0.5 | -0.6 | -0.3 | 0.7
CC(Sc1nc(-c2ccc(F)cc2)cs1)C(=O)Nc1ccc(Cl)cn1 (stereo unspecified) | 0.7 | x | 0 | -3.4 | -1.5 | -0.7 | -0.7
CCC(=O)Nc1ccc(NC(=O)CSc2nnnn2Cc2ccccc2)cc1C | 0.7 | x | -20 | x | 4.6 | 2.8 | x
O=C(COC(=O)/C=C/c1cccc(Cl)c1)NCCc1ccccc1 | 0.71 | x | 3 | -4.7 | 2.0 | -1.7 | 0.3
S=c1[nH]nc(-c2ccncc2)n1/N=C/c1cn(-c2ccccc2)nc1-c1ccccc1 | x | x | 8 | -7.4 | 1.1 | x | -3.3
COCCn1c(=NC(=O)c2nc3ccccc3s2)sc2cc(S(C)(=O)=O)ccc21 | 0.66 | x | 4 | -0.4 | 1.8 | -168 | 0.7
CC(=O)Nc1ccc(S(=O)(=O)NNC(=O)COc2cccc3ccccc23)cc1 | 0.68 | x | -8 | 1.8 | -1.2 | 7.8 | -0.4
CCN(CC)S(=O)(=O)c1ccc(OC)c(NC(=O)c2cn(CC)c3nc(C)ccc3c2=O)c1 | 0.56 | -10% | 14 | -6.6 | 0.4 | -1.1 | 1.1
COc1ccc(C(CC(=O)NCc2ccccc2)Sc2n[nH]c(-c3ccccc3)n2)cc1 (stereo unspecified) | 0.68 | x | -7 | -18 | -1.4 | 0.5 | 0.1
COc1ccc(CCNC(=O)CSc2nc(C)cc(C)n2)cc1OC | 0.71 | x | 2 | -0.7 | -1.8 | 0.2 | 0.3
Cc1cc(C)n(-c2nc3ccccc3c(=O)n2OCC(=O)Nc2c(C)cccc2C)n1 | 0.76 | 5% | 4 | 2.9 | 0.8 | 5.2 | -0.7
CNC(=S)N1CCC(n2cnc3ccccc32)CC1 | 0.68 | -4% | -6 | 4.5 | -1.1 | 0.4 | 1.1
CCOC(=O)c1sc(NC(=O)c2cc(-c3ccc(C)cc3)nc3ccccc23)c(C#N)c1C | 0.66 | 1% | 19 | 0.3 | -0.8 | -3.9 | 0.0
Cc1cccnc1NC(=O)CNC(=O)COc1ccccc1 | 0.73 | 0% | 2 | 2.9 | 1.6 | 5.3 | -0.1
O=C1OC(c2ccccc2)=C/C1=C/N1CCCCC1 | 0.69 | 17% | 2 | 3.0 | -3.6 | 15 | -0.5
COc1ccc(OCC(=O)NNC(=S)NC(=O)c2ccc(Br)o2)cc1 | 0.72 | x | -6 | 3.1 | 2.7 | 6.1 | -0.2
COc1ccc2cc(C(=O)Nc3ccc(Cl)cc3)sc(=O)c2c1OC | 0.69 | u | 11 | -0.3 | 2.6 | -8.4 | -0.5

Six compounds from above, reduced to Ecoli growth, HNF4A DNA FP and B2AR ag:
SMILES | Ecoli growth | HNF4A DNA FP | B2AR ag
CC1Cc2ccccc2N1Cc1cccc([N+](=O)[O-])c1 (stereo unspecified) | 0.66 | -1.4 | 2
COCCn1c(=NC(=O)c2nc3ccccc3s2)sc2cc(S(C)(=O)=O)ccc21 | 0.66 | 1.8 | 4
Cc1ccc(-c2nc3ccccc3c(=O)n2CCCn2ccnc2)cc1 | 0.71 | -0.5 | -11
CC1CCN(C(=O)CSCc2ccc(Cl)cc2)CC1 | 0.74 | -0.4 | -12
S=c1[nH]nc(-c2ccncc2)n1/N=C/c1cn(-c2ccccc2)nc1-c1ccccc1 | x | 1.1 | 8
CNC(=S)N1CCC(n2cnc3ccccc32)CC1 | 0.68 | -1.1 | -6

Additional structures.
SMILES | Ecoli growth | Vif A3G | B2AR ag | LANA-H2B inh | HNF4A DNA FP | UCH37 inh | Bfl-1 A1 inh
CC(C)Cn1c(/C=C/c2ccco2)nc2ccccc21 | 0.66 | x | 4 | -5.7 | 12 | -60 | 0.0
CCOc1ccc2nc(SCC(=O)NC3CCS(=O)(=O)C3)[nH]c2c1 (stereo unspecified) | 0.71 | -1% | 7 | 5.3 | 2.8 | 0.4 | 0.2
CCc1ccc(NC(=S)N(CCCN2CCN(C)CC2)Cc2cccs2)cc1 | 0.71 | x | -2 | -0.1 | -3.2 | 6.9 | -0.3
COC(=O)CC1C(=O)NCCN1C(=O)c1cc(OC)c(OC)cc1OC (stereo unspecified) | 0.67 | 3% | 0 | 3.3 | 0.3 | 1.4 | -0.6
Cc1cccc(Cn2c(=O)n(-c3ccc(CC(=O)NCc4ccco4)cc3)c(=O)c3sccc32)c1 | 0.71 | 0% | 2 | -2.4 | -1.5 | 3.6 | -0.3
O=C(/C=C/c1ccc([N+](=O)[O-])cc1)NCc1ccccn1 | 0.7 | 3% | -3 | 1.6 | -0.5 | 8.3 | 0.5
COc1cc(/C=C2\OC(=O)c3c(OC)cccc32)ccc1O | 0.69 | -2% | 5 | -4.0 | 2.7 | -13 | -6.3
CC(C)C[C@@]12C(=O)N(c3cccc(Cl)c3)C(=O)N1[C@H](c1ccc(Cl)cc1)[C@@H]1C(=O)N(C3CCCCC3)C(=O)[C@@H]12 | x | x | -6 | -7.2 | 7.2 | 1.1 | -0.7
COc1ccc(Nc2nc(OC)nc(N3CCOCC3)n2)cc1 | 0.71 | -3% | 1 | -6.0 | -5.0 | 1.0 | -0.1
Cn1cc(/C=N\NC(=O)c2cccs2)c2ccccc21 | x | 5% | -1 | 17* | 1.4 | x | -0.2
COc1ccc(OC)c(C2C(C(C)=O)=C(O)C(=O)N2Cc2cccnc2)c1 (stereo unspecified) | 0.72 | -4% | 0 | 4.7 | 3.9 | 7.2 | 5.2*
O=[N+]([O-])c1cc(S(=O)(=O)N2CCOCC2)ccc1N1CCCC1 | 0.66 | 19% | -18 | 2.7 | 1.6 | 3.1 | 0.9
CC1(C)NC(=O)N(CC(O)CNC23CC4CC(CC(C4)C2)C3)C1=O (stereo unspecified) | 0.68 | 10% | -5 | 0.8 | -1.7 | 1.5 | -0.4
CCC(=O)Nc1cc(-c2nn(C)c(=O)c3ccccc23)ccc1OC | 0.71 | 1% | 6 | 1.1 | 4.6 | 5.3 | 0.6
CCCn1nnnc1NCc1ccc(N(CC)CC)cc1 | 0.69 | x | -3 | -1.1 | 0.0 | 4.5 | 1.6
CCOC(=O)CC1(NC(=O)c2cc(COc3ccc(F)c(F)c3)on2)CCCCC1 | 0.69 | x | -3 | 1.8 | -0.7 | 2.5 | 0.5
CCCC(=O)Nc1cccc(Oc2nc(C)cc(C)c2C#N)c1 | 0.75 | -2% | -7 | 4.3 | -0.9 | 0.6 | -1.2
CC(Sc1nn(-c2ccccc2)c(=S)s1)C(=O)NCC1CCCO1 (stereo unspecified) | 0.66 | -11% | -4 | 0.0 | -2.8 | 6.4 | -0.2
COc1ccccc1N1CCN(S(=O)(=O)CCNC(=O)c2ccc(Br)o2)CC1 | 0.68 | x | 3 | -2.5 | -10 | 4.5 | 1.0

Screening data: PubChem, several laboratories

Compounds as they come (roughly 2.1% active in at least one column).
